# 2A Renilla: FMDV 2A StopGo reporter, Renilla signal. Potency, µM (highest dose often 57.5 µM), inactives show at the top dose signal change, negative = less light. AID 1745857. actives 0.32% (n = 120,000). HEK cells with a luciferase reporter of 2A StopGo recoding; active means well fitted falling curve with a large enough effect; inconclusive means small, poorly fitted or top-dose-only effect; inactive means no such curve, though single readings can be large or run the other way; also: nearly all actives have a fitted effect of over 55% in size; overnight with compound
# StopGo FLuc: lowers the firefly signal of an FMDV 2A StopGo reporter. HEK cells with a luciferase reporter of 2A StopGo recoding. Potency, µM (top dose mostly 57.5 µM), inactives show at the highest dose signal change, negative = less light. actives 0.23% (n = 120,000). AID 1745856; active = well fitted falling curve with a large enough effect; inconclusive = small, poorly fitted or top-dose-only effect; inactive = no such curve, though single readings can be large or run the other way; also: nearly all actives have a fitted effect of over 60% in size; overnight with compound
# * hit, by the source's call; ? = inconclusive; [ ] = another dose, or the depositor's remark. % is scaled to controls: 0 for no effect and ±100 for the full control effect; potency is read from the fitted curve at half-maximal effect. A portion of the library (hit frequency here may not be typical).
SMILES,2A Renilla,StopGo FLuc
O=C(CSc1nc2cc(Cl)ccc2s1)NCCCc1ccccc1,10.9%,4.6%
Cc1cccn2cc(CSc3nnc(-c4ccccc4)o3)nc12,16.2%,76.5%[activator]
Cc1oc(-c2cccc(Br)c2)nc1CSc1nc2ncccc2[nH]1,-11.5%,-23.2%
CCOC(=O)c1ccc(N2C(=O)c3[nH]nc(-c4ccc(C)cc4)c3C2c2ccc(O)cc2)cc1 (stereo not given),?,?
Cc1nc(-c2ccc(OC(=O)c3ccc4c(c3)NC(=O)CS4)cc2)no1,8.5%,-1.4%
COc1ccc(CN2CCN(Cc3cccnc3)CC2)cc1OCc1ccccc1,8.0%,2.8%
CC(O)c1ccc2c(c1)OCCOCCOCCOCCO2 (stereo not given),7.8%,0.9%
COc1cccc(NC(=O)c2oc3ccccc3c2NC(=O)c2ccc(C(F)(F)F)cc2)c1,-11.8%,-15.6%
CCNC(=O)C1CCCN(c2ncnc3onc(C)c23)C1 (stereo not given),-1.5%,-1.2%
Cc1ccc(C)c(C(=O)COC(=O)COc2ccc(C3SCCCS3)cc2)c1,-9.3%,-2.0%
CCc1nn(-c2ccccc2)c2nc(-c3cccc(OC)c3)c3cc(OC)c(OC)cc3c12,-6.3%,-13.2%
C=CCNc1oc(COc2ccccc2C)nc1C#N,26.3%,142.5%[activator]
COc1ccc(CN2C(=O)C(NC(=O)c3ccccc3OC)(C(F)(F)F)N=C2c2ccccc2)cc1 (stereo not given),7.6%,-7.3%
CCOC(=O)c1oc2cc(OCc3ccc(OC)cc3)ccc2c(=O)c1-c1ccc(OC)c(OC)c1,-11.3%,-14.0%
O/N=C/c1c(F)cccc1Cl,-9.3%,9.0%

# Continued, starting with the last 2 of the part before.
SMILES,2A Renilla,StopGo FLuc
CCOC(=O)c1oc2cc(OCc3ccc(OC)cc3)ccc2c(=O)c1-c1ccc(OC)c(OC)c1,-11.3%,-14.0%
O/N=C/c1c(F)cccc1Cl,-9.3%,9.0%
Cc1ccc2nc(-c3ccc(C)c(NC(=O)Cc4ccccc4)c3)oc2c1,21.5%,111.7%[activator]
COc1cccc(-c2ccc3c(N)c(C(=O)Nc4cc(F)ccc4F)sc3n2)c1,382.7%[activator],83.8%[activator]
COCCCNC(=O)CC1CC2CCC1C2 (stereo not given),4.2%,29.7%
O=C(C(Sc1nncn1-c1ccccc1F)c1ccccc1)N1CCCC1 (stereo not given),9.0%,14.8%
CCc1cccc(NC(=O)c2cc(S(=O)(=O)N3CCCCCC3)cn2C)c1,-1.5%,-3.5%
COc1ccc(C(=O)N2CC(C)CC(C)C2)c2ccccc12 (stereo not given),72.4%[activator],8.6%
CCN(CC)S(=O)(=O)c1cccc(NS(=O)(=O)c2cccs2)c1,120.2%[activator],5.9%
COc1ccc(S(=O)(=O)Nc2cccc(-c3ccc(N4CCCCCC4)nn3)c2)cc1OC,2.3%,84.5%[activator]
CC1=C(C(=O)Nc2cccc(C(F)(F)F)c2)C(c2ccccn2)n2ncnc2N1 (stereo not given),-0.9%,1.9%
Cc1cc(C(=O)CSc2nc3cc([N+](=O)[O-])ccc3o2)c(C)n1C1CC1,-5.2%,3.1%
Cn1c(=O)c2c(nc(Br)n2Cc2ccc(F)cc2)n(C)c1=O,2.4%,6.9%
Cc1cccc(C)c1-n1nnnc1SCc1nc2ccccc2o1,0.0%,?
O=C(CCNc1nc(Cl)nc2nc[nH]c12)NCCO,1.6%,3.8%
CCCCCOC(=O)/C(C#N)=C/c1c[nH]c2ccccc12,13.2%,93.8%[activator]
Cc1ccc2c(c1)Oc1ccc(S(=O)(=O)N(C)c3ccc(C)c(C)c3)cc1C(=O)N2,-8.7%,-9.9%
CCc1ccc(OCCSc2nc(-c3cccc(C)c3)nc3cc(=O)[nH]n23)cc1,-7.8%,-5.2%
CCc1ccccc1NC(=O)c1cc(S(=O)(=O)N(CC)c2ccccc2)ccc1F,-4.9%,-19.8%
CC(=O)N(Cc1cc2ccccc2[nH]c1=O)CC(C)C,-13.1%,-0.3%
CC(Sc1nc2ccccc2o1)c1nc2ccccc2c(=O)[nH]1 (stereo not given),3.8%,128.3%[activator]
CCOc1cc(C2CC(=O)Nc3c2c(C)nn3-c2nc(C)cc(C)n2)ccc1O (stereo not given),-8.9%,-7.9%
CC(CNC(=O)Cn1c(-c2cccs2)cc2cc(Cl)ccc21)c1ccccc1 (stereo not given),-12.2%,-13.8%
Cc1cccc(N2C(=O)N(Cc3ccc(C(C)(C)C)cc3)c3ccccc3S2(=O)=O)c1,0.0%,-8.2%
O=C(OCc1cccc([N+](=O)[O-])c1)C12CC3CC(CC(O)(C3)C1)C2,-6.4%,32.6%[activator]
Cc1cccc(NC(=O)CSc2nc(-c3cccc(C)c3)nc3c2Cc2c(CO)cnc(C)c2O3)c1,-11.8%,-3.7%
CCCCC(=O)NCc1nc2cccnc2n1Cc1ccc(OC)cc1,-8.6%,-17.0%
CCCCNc1nc(-c2cccc(OC)c2O)nc2ccccc12,-22.5%,-13.4%
CC(C)c1ccc(C(=O)Nc2ccc(-c3nn4cnnc4s3)cc2)cc1,14.3%,-1.6%
Cc1ccc(NC(=O)Cn2c(=O)n(Cc3ccco3)c(=O)c3ccc(C(=O)NC4CCCC4)cc32)c(C)c1,6.1%,1.7%
Clc1ccc(-c2cn3cc(Cl)ccc3n2)cc1,-1.9%,-14.6%
CC(=O)c1c(C)oc2ccc(N(C(=O)c3ccncc3)S(=O)(=O)c3ccc(F)cc3C)cc12,43.7%[activator],?
Cc1ccc(C)c(NC(=O)C2CCN(c3cc(C)nc4c(-c5ccc(Cl)cc5)c(C)nn34)CC2)c1,-2.8%,-8.7%
CCCCC(=O)OC1=CN(Cc2ccccc2)S(=O)(=O)c2ccccc21,22.7%,9.1%
O=C(CN1CCN(C(=O)c2cccnc2)CC1)Nc1ccccc1Cl,-14.6%,-19.7%
CCOC(=O)c1cccc(NC(=O)Nc2cccc(F)c2C)c1,23.2%,150.3%[activator]
CC(C)NC(=O)Cn1c(=O)n(-c2ccccc2)c(=O)c2sccc21,-3.3%,-1.7%
CC(C)Cn1c(SCC(=O)Nc2ccc(C(=O)O)cc2)nnc1-c1ccc(Cl)cc1,-11.2%,-10.9%
CC(=O)Nc1ccc(NC(=O)Nc2ccccc2Cl)cc1,15.8%,172.3%[activator]
CCOC(=O)c1c(C)[nH]c(C)c1S(=O)(=O)NCC(=O)Nc1ccc(CC)cc1,184.9%[activator],?
CCc1ccc(NC(=O)C(Cc2ccccc2)NS(=O)(=O)c2ccc3c(c2)c(=O)n(C)c(=O)n3C)cc1 (stereo not given),11.9%,-20.6%
COc1cc2ncc(C#N)c(Nc3cc(OC)c(OC)c(OC)c3)c2cc1OC,14.2%,0.8%
CCCN(Cc1cc2cccc(C)c2[nH]c1=O)S(C)(=O)=O,-4.1%,-5.0%
Cc1ccc(CNC(=O)CCc2c(C)nc3c4c(C)cc(C)nc4nn3c2C)cc1,1.4%,-3.2%
CCCCCCOc1ccc(C(=O)N2CCN(c3oc(-c4ccco4)nc3C#N)CC2)cc1OC,0.5%,54.4%[activator]
O=C(CCc1nc2sc3c(c2c(=O)[nH]1)CCC3)NCc1ccccc1OC(F)(F)F,-11.9%,-5.6%
O=C(NCc1ccccc1)c1ccc2nc(-c3ccccc3)c(-c3ccccc3)nc2c1,32.3%[activator],8.6%
CCOC(=O)COC(=O)CNC(=O)c1ccc(C)c(C)c1,10.7%,0.0%
O=C(NCc1cccnc1N1CCOCC1)c1cnn(-c2ccc(Cl)cc2)c1,-8.5%,-3.6%
CCC1CN(C(=O)NCc2ccc(F)cc2)c2ccccc2O1 (stereo not given),-5.6%,-16.2%
Cc1c(Cl)cccc1NC(=O)Nc1ccc2snnc2c1,?,?
Cc1ccc(-n2ncc(C(=O)NCCN3CCN(C)CC3)c2C2CCN(C(=O)OC(C)(C)C)CC2)c(C)c1,20.4%,-7.4%
Cc1ccc(NC(=O)c2nc(S(C)(=O)=O)ncc2N(Cc2ccc(C(C)(C)C)cc2)Cc2ccco2)cc1C,4.7%,6.5%
CC(C)CNC(=O)/C=C/c1ccccc1,12.8%,188.3%[activator]
CC(C)COC(=O)COc1ccc2c(=O)c(Oc3ccccc3Cl)coc2c1,22.0%,-0.3%
CC(=O)c1cccc(NC(=O)CCS(=O)(=O)c2cc3c(cc2C)NC(=O)CO3)c1,-1.9%,-2.1%
CN(CC(=O)NC(=O)NCc1ccco1)Cc1ccc(F)cc1,-5.6%,5.4%
CC(=O)c1ccc(N2CCN(C(=O)c3cc(F)c(F)cc3C)CC2)c(F)c1,-3.2%,-6.9%
Cc1ccccc1NS(=O)(=O)c1ccc2[nH]c3c(c2c1)CCCCC3,304.9%[activator],11.2%
COc1ccc(-c2nn(C)c3sc(C(=O)N4CCN(c5ccccc5F)CC4)cc23)cc1OC,-1.6%,8.8%
Cc1cc(NC(=O)c2ccc(Br)o2)no1,19.0%,-15.1%
COc1ccc(C(=O)Oc2ccc(-c3ccccc3)cc2)cc1,-1.3%,6.9%

# Next section.
SMILES,2A Renilla,StopGo FLuc
CCC1=C(c2ccc(C)cc2)S(=O)(=O)N=C1N1CCC(C(=O)NCc2ccc(C)cc2)CC1,13.4%,-18.0%
O=c1oc2cc(O)ccc2cc1-c1nnc(Nc2ccccc2F)s1,20.1%,90.4%[activator]
COC(=O)c1ccccc1NC(=O)c1ccc2nc(Cc3ccccc3)oc2c1,19.1%,-2.4%
Cn1c(=O)c2c(nc(NCc3ccc(S(N)(=O)=O)cc3)n2Cc2ccccc2Cl)n(C)c1=O,3.4%,10.0%
Cc1ccccc1C1CC(=O)N(c2ccc(F)cc2)C2=C1C(=O)CCC2 (stereo not given),-1.6%,-11.3%
CNC(=O)c1c(NC(=O)/C=C/c2ccccc2)sc2c1CCC2,108.7%[activator],97.4%[activator]
Cc1sc(NC(=O)CC2(CC(=O)O)CCCCC2)c(C(N)=O)c1-c1ccccc1,1.6%,33.0%[activator]
Cc1cccc(-n2c(=O)c3c(c4cc(C)ccc4n3C)n(CC(=O)NCCC3=CCCCC3)c2=O)c1,-1.5%,12.6%
COc1cc(NC(=O)c2ncoc2-c2ccco2)cc(OC)c1,21.0%,13.1%

# Grouped by structure: the compounds so far containing fluorine.
SMILES,2A Renilla,StopGo FLuc
COc1cccc(NC(=O)c2oc3ccccc3c2NC(=O)c2ccc(C(F)(F)F)cc2)c1,-11.8%,-15.6%
COc1ccc(CN2C(=O)C(NC(=O)c3ccccc3OC)(C(F)(F)F)N=C2c2ccccc2)cc1 (stereo not given),7.6%,-7.3%
O/N=C/c1c(F)cccc1Cl,-9.3%,9.0%
COc1cccc(-c2ccc3c(N)c(C(=O)Nc4cc(F)ccc4F)sc3n2)c1,382.7%[activator],83.8%[activator]
O=C(C(Sc1nncn1-c1ccccc1F)c1ccccc1)N1CCCC1 (stereo not given),9.0%,14.8%
CC1=C(C(=O)Nc2cccc(C(F)(F)F)c2)C(c2ccccn2)n2ncnc2N1 (stereo not given),-0.9%,1.9%
Cn1c(=O)c2c(nc(Br)n2Cc2ccc(F)cc2)n(C)c1=O,2.4%,6.9%
CCc1ccccc1NC(=O)c1cc(S(=O)(=O)N(CC)c2ccccc2)ccc1F,-4.9%,-19.8%
CC(=O)c1c(C)oc2ccc(N(C(=O)c3ccncc3)S(=O)(=O)c3ccc(F)cc3C)cc12,43.7%[activator],?
CCOC(=O)c1cccc(NC(=O)Nc2cccc(F)c2C)c1,23.2%,150.3%[activator]
O=C(CCc1nc2sc3c(c2c(=O)[nH]1)CCC3)NCc1ccccc1OC(F)(F)F,-11.9%,-5.6%
CCC1CN(C(=O)NCc2ccc(F)cc2)c2ccccc2O1 (stereo not given),-5.6%,-16.2%
CN(CC(=O)NC(=O)NCc1ccco1)Cc1ccc(F)cc1,-5.6%,5.4%
CC(=O)c1ccc(N2CCN(C(=O)c3cc(F)c(F)cc3C)CC2)c(F)c1,-3.2%,-6.9%
COc1ccc(-c2nn(C)c3sc(C(=O)N4CCN(c5ccccc5F)CC4)cc23)cc1OC,-1.6%,8.8%
O=c1oc2cc(O)ccc2cc1-c1nnc(Nc2ccccc2F)s1,20.1%,90.4%[activator]
Cc1ccccc1C1CC(=O)N(c2ccc(F)cc2)C2=C1C(=O)CCC2 (stereo not given),-1.6%,-11.3%
